Bioassay records (PubChem BioAssay)
Sa growth inh = S. aureus growth inhibition at 42 and 30 °C, primary screen, LtaS inhibitor project, RN4220, two temperatures; relative growth, % (no concentration beside the values); OD600, 20 h, 42 °C; hits give low values; 170,000 compounds, 0.53% hits;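 active = growth at 42 °C up to 50% and 20 or more points under that at 30 °C, or under 10% at both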;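 note: 300 nL library stock went into each well; scaled to the means of positive and negative controls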
GIV Gai3 FP = inhibitors of GIV peptide binding to Galpha-i3, primary screen, biochemical, fluorescence polarization, FITC-GIV GBA peptide, rat Galphai3; 210,000 compounds, 0.42% hits; 90 min; hits give low values; scaled: aluminum fluoride 0%, vehicle 100%; percent of control (FP), % (no concentration beside the values); AID 1224905, 2016; Guanine nucleotide-binding protein G(i) subunit alpha-3 (Rattus norvegicus), P08753;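 active = replicate mean at 85% of control or lower, very high polarization wells dropped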;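 note: wells of about 15 µL received 100 nL stock; the first replicate is given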
Target sequence (P08753 whole entry, looked up): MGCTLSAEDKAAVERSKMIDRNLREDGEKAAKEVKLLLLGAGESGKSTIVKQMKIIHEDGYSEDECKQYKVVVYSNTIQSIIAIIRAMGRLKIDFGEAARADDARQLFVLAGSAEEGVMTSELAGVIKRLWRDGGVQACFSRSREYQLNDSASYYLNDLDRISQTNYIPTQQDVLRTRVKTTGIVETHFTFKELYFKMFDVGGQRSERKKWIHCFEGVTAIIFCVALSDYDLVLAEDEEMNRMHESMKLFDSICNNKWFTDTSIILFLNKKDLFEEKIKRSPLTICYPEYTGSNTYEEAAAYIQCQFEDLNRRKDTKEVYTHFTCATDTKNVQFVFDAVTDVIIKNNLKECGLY
HCMV UL50-53 inh = inhibitors of HCMV UL50-UL53 interaction, biochemical, HTRF. HCMV UL50-UL53 nuclear egress complex (human cytomegalovirus). normalized percent inhibition. inhibition, % (test concentration not listed). 190,000 compounds, 0.15% hits;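 active = both replicates at 50% or more, plus weaker picks with an unusually low signal ratio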;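 note: stock transfer was 100 nL into about 20 µL; 0% = negative control wells and 100% = wells with untagged competitor protein; inactives centre near -12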
Sa growth inh second temp = second read-out of Sa growth inh, no call of its own (marks repeat the call); relative growth, %; measured here: growth at 30 °C;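 optical density after 20 h as mean of two plates; 100% = untreated growth and lower means inhibition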
An asterisk follows results filed as active; · = no result given; & = joins results of further samples.

Preview, 2 compounds:
SMILES	Sa growth inh	Sa growth inh second temp	GIV Gai3 FP	HCMV UL50-53 inh
Cc1c(COC(=O)c2ccccc2)sc2ccccc12	117	102	103	12
Cc1onc(-c2c(F)cccc2Cl)c1C(=O)N(CCO)CCO	108	90	·	12

The list itself, repeating the preview:
SMILES	Sa growth inh	Sa growth inh second temp	GIV Gai3 FP	HCMV UL50-53 inh
Cc1c(COC(=O)c2ccccc2)sc2ccccc12	117	102	103	12
Cc1onc(-c2c(F)cccc2Cl)c1C(=O)N(CCO)CCO	108	90	·	12
CCOC(=O)c1c(NC(C)=O)c2c3c(sc2n1Cc1ccccc1Cl)CCCC3	92	90	97	0
COc1ccc(N2CCN(C(=O)C3CCCN(C(=O)c4cc(-c5ccncc5)n[nH]4)C3)CC2)cc1 (stereo not given)	·	·	102	-16
Cc1ccc(S(=O)(=O)NCCC(=O)NC2CCCCC2)cc1	88	97	·	13
CCN(CC)Cc1c(O)ccc2c(C)cc(=O)oc12	98	99	109	-5
COCCn1c(N)c(C(=O)c2cccc(S(=O)(=O)N3CCCCCC3)c2)c(=O)[nH]c1=O	89	97	·	0
Cc1ccc(S(=O)(=O)c2nc(-c3ccco3)oc2SCc2ccc(F)cc2)cc1	103	94	104	9
COC(=O)C(CCSC)NC(=O)Cn1ncc2c([nH]c3ccccc32)c1=O (stereo not given)	116	93	105	·
COc1ccc(-n2cnc3cc(NCc4ccccc4O)ccc32)cc1	67	65	·	20
COc1ccc(NC(=O)C2(N(C(=O)Cn3nnnc3N)c3ccc(OC)cc3)CCCCC2)cc1	95	81	·	5
O=C(CN1CCN(c2ccccc2)CC1)Nc1nnc(C2CCCCC2)s1	111	100	104	-12
Cc1cc(C)cc(NC(=O)CSc2oc(-c3cccs3)nc2S(=O)(=O)c2ccc(Br)cc2)c1	92	94	106	-27
Cc1noc(C)c1CSc1ncnc2sccc12	78	82	·	-11
Cc1ccc(-n2nc(C(=O)Nc3ccc(Cl)cn3)c3c4ccccc4n(C)c3c2=O)cc1	97	103	101	-4
O=C(C1CCN(c2ccc(Cl)cc2)C1=O)N1CCOCC1 (stereo not given)	·	·	104	-24
Cc1ccccc1OCC1=NN2C(=N)/C(=C/c3ccc(N(C)C)cc3)C(=O)N=C2S1	123	89	153	-14
O=C(COc1ccccc1F)NCC(c1ccc(F)cc1)N1CCOCC1 (stereo not given)	117	94	·	2
COc1cc(C)c(CN2CCCCC2)cc1C	99	88	108	-1
C=CCN(CC=C)Cc1c(O)ccc2c(=O)c(-c3ccccc3)coc12	80	85	100	·
CCOc1ccc(NC(=O)C2C3C=CC(O3)C2C(=O)O)cc1 (stereo not given)	104	92	·	8
CCCNC(=O)CCc1c(C)nc2nc(CNC(=O)c3ccccc3)nn2c1C	98	78	101	-22
CCOC(=O)CCn1nc(C)c2c(C)n(-c3ccccc3)nc2c1=O	105	91	111	-3
CN(C)C(=O)c1ccc2c(c1)nc(CN(C)S(=O)(=O)c1ccccc1Br)n2C	·	·	99	-13
CCCCNC(=O)C1CCCN(S(=O)(=O)CC)C1 (stereo not given)	87	92	107	-25

Part of the list above with just HCMV UL50-53 inh and GIV Gai3 FP.
| structure | HCMV UL50-53 inh | GIV Gai3 FP |
| --- | --- | --- |
| Cc1ccc(S(=O)(=O)NCCC(=O)NC2CCCCC2)cc1 | 13 | · |
| COC(=O)C(CCSC)NC(=O)Cn1ncc2c([nH]c3ccccc32)c1=O (stereo not given) | · | 105 |
| Cc1ccccc1OCC1=NN2C(=N)/C(=C/c3ccc(N(C)C)cc3)C(=O)N=C2S1 | -14 | 153 |
| Cc1c(COC(=O)c2ccccc2)sc2ccccc12 | 12 | 103 |
| O=C(COc1ccccc1F)NCC(c1ccc(F)cc1)N1CCOCC1 (stereo not given) | 2 | · |
| CN(C)C(=O)c1ccc2c(c1)nc(CN(C)S(=O)(=O)c1ccccc1Br)n2C | -13 | 99 |
| Cc1onc(-c2c(F)cccc2Cl)c1C(=O)N(CCO)CCO | 12 | · |

Other records:
SMILES	Sa growth inh	Sa growth inh second temp	GIV Gai3 FP	HCMV UL50-53 inh
Cn1nccc1-c1cc(Cl)cc(Cl)c1O	102	33	101	-14
CCCCCSc1nnc2c(n1)OC(CC)Nc1ccc(Br)cc1-2 (stereo not given)	90	82	107	-31
COc1ccc(OC)c(NC(=O)Cn2c(=O)n(-c3cccc(C)c3)c(=O)c3c2c2cc(C)ccc2n3C)c1	104	86	102&97	-4&-27
Cc1cc(C)cc(-n2ccn(CC(=O)NCCc3ccccc3)c(=O)c2=O)c1	130	96	98	-22
Cc1cc(C(F)(F)F)c(C#N)c(SCC(=O)c2ccc([N+](=O)[O-])cc2)n1	·	·	108	-41
CCOc1ccc(/C=C2/SC(=O)N(CNc3ccc(OC)c(Cl)c3)C2=O)cc1	·	·	102	14
O=C(NC1CCN(Cc2nnnn2Cc2ccc3c(c2)OCO3)CC1)c1ccccc1F	74	98	108	4
Cc1cc2cc(CNC(=O)NC3CCCCC3)ccc2n1C	94	88	98	-33
CC1CC(C)CN(C(=O)c2cc3c(-c4ccc(Cl)cc4)nn(C)c3s2)C1 (stereo not given)	100	99	107	1
O=C1NC(=S)NC(=O)C1=CN1CCCc2ccccc21	90	82	·	-26
Cc1ccc(C(C(=O)NCc2ccccc2)N(C(=O)C2COc3ccccc3O2)c2cccc(O)c2)o1 (stereo not given)	133	79	103	-4
NS(=O)(=O)c1ccc(CCNC(=O)CCC2COc3ccccc3O2)cc1 (stereo not given)	110	79	106	·
NC(=O)Cc1csc(N)n1	99	93	·	-18
CCNC(=O)C1CCCN(c2nnc(N3CCCC3=O)s2)C1 (stereo not given)	115	84	98	·
COc1nc(-c2ccc(Cl)cc2)ccc1-c1noc(COc2ccccc2)n1	89	74	111&107	-1&-8
Cc1ccccc1-n1c(SCC(=O)Nc2ccc(F)c(Cl)c2)nnc1-c1cc2occc2n1C	105	85	99	-15
C#CC(=O)OCC(=O)Nc1ccc(C)c(C)c1	73	76	·	37
Cc1ccc(OCCCCn2cnc3ccccc32)cc1	94	79	103	-10
CCOC(=O)N1CCN(S(=O)(=O)c2ccc(C(=O)Nc3nc4ccc(Br)cc4s3)cc2)CC1	·	·	100	4
CC(=O)Nc1ccc(S(=O)(=O)N2CCN(c3ccccc3)CC2)cc1	110	89	106	·
CC1(C)c2sc(=O)[nH]c2SC2C(=O)N(c3ccc(Br)cc3)C(=O)C21 (stereo not given)	86	89	·	-6
Cn1nc(C(F)(F)F)cc1OC(=O)c1ccccc1Cl	104	88	98	-13
CC12C(=O)OC(=O)C1(C)C1CCC2O1 (stereo not given)	·	·	94	-10&-9
Cc1ccc(Cl)cc1NC(=O)c1nnn(Cc2ccccc2)c1N	103	94	102	-13
O=S(=O)(CCN1CCSCC1)c1ccccc1	109	91	105	10

One compound at a time (already shown).
C=CCN(CC=C)Cc1c(O)ccc2c(=O)c(-c3ccccc3)coc12 as listed: Sa growth inh = 80; Sa growth inh second temp = 85; GIV Gai3 FP = 100; HCMV UL50-53 inh = ·
Cc1ccc(S(=O)(=O)NCCC(=O)NC2CCCCC2)cc1 as listed: Sa growth inh = 88; Sa growth inh second temp = 97; GIV Gai3 FP = ·; HCMV UL50-53 inh = 13

(further entries)
SMILES	Sa growth inh	Sa growth inh second temp	GIV Gai3 FP	HCMV UL50-53 inh
Cc1ccc(N2C(=O)NC(=O)/C(=C\c3ccc(O)c(Br)c3)C2=O)cc1	·	·	110	-3
COc1ccccc1NC(=O)n1ncc2c(C)cccc21	123	96	105&102	-26&-20
COc1cccc(CNC(=O)CSc2nc(=O)[nH]c3c2CCCC3)c1	123	84	96	·
COc1ccc(NC(=O)C2Cc3ccccc3CN2C(=O)c2ccccc2)cc1 (stereo not given)	91	81	·	-39
Cc1cc(N2C(=O)Nc3ccccc3N2O)no1	110	92	101	·
CCCNC(=O)c1ccc(S(=O)(=O)N(C)c2ccccc2)cc1	110	90	·	-18
Cc1ccc2nc(C(F)(F)F)cc(OC(C)C)c2c1	99	87	104	-9
COc1cc(OC)cc(C(=O)N2CCc3ccccc32)c1	79	89	·	-4
COc1ccc(C2CC(=O)N(c3ccccc3)C3=C2C(=O)CCC3)c(OC)c1 (stereo not given)	86	90	99	1
COC(=O)c1cccc(Nc2c(-c3cc(Br)ccc3O)nc3nc[nH]n23)c1	92	87	97&103	·
Cn1cc(S(=O)(=O)N2CCCCC2)cc1C(=O)N1CCN(c2cccc(Cl)c2)CC1	·	·	108	-22
COc1cc(Cl)cc(C(=O)O)c1O	101	84	·	-90
CC(=O)Nc1ccc(S(=O)(=O)N2CC=C(c3c(C)n(Cc4ccc(F)cc4)c4ccccc34)CC2)cc1	·	·	112	-34
Cc1ccc(NC(=O)c2c(NC(=O)c3ccccc3Cl)sc3c2CCC3)cc1	107	104	108	8
Cc1nn(CC(=O)NCc2ccc(N(C)C)cc2)c(=O)c2nn(-c3ccccc3)c(C)c12	102	86	107	·
CCCC(=O)NC1CC(=O)N(c2ccc3c(c2)OCCO3)C1 (stereo not given)	103	94	99&100	·
COC(=O)CC1c2cc(OC)c(OC)cc2CCN1C(=O)Nc1ccc(C)cc1Cl (stereo not given)	103	92	103	·
CCOC(=O)c1ccc(-c2ccc(/C=C(\C#N)C(=O)Nc3ccc(C)cc3OC)o2)cc1	105	97	108	15
O=C(NCc1ccco1)C(c1ccccc1)c1ccccc1	89	93	·	-4
N#CC(=NCCC1=CCCCC1)C1=C(O)c2ccccc2C1=O	116	98	104	-1
CC(C)Cn1c(=O)c2ccccc2n2c(=O)n(CC(=O)Nc3cccc(Cl)c3)nc12	·	·	96	12
CCN(CC)S(=O)(=O)c1ccc2c(c1)ncn2CCC(=O)N1CCN(c2ccccn2)CC1	·	·	108	2
CN(C(=O)CSc1nc(N)c(NC(=O)c2ccccc2)c(=O)[nH]1)c1ccccc1	93	83	105	-36
O=c1ccc2cc(S(=O)(=O)Nc3ccc(F)c(Cl)c3)ccc2[nH]1	119	91	104	·
CN(C(=O)c1cc2sccc2n1C)C1CCCCC1	101	82	101	0

(list continues)
SMILES	Sa growth inh	Sa growth inh second temp	GIV Gai3 FP	HCMV UL50-53 inh
O=C(NCCc1ccccc1)C1CCCN1C(=O)Nc1ccccc1 (stereo not given)	99	102	100	-41
CCOC(=O)c1sc(NC(=O)Cn2c3ccccc3c(=O)c3ccccc32)nc1C	·	·	108	-12
CC(CCc1ccccc1)NC(=O)CSc1ccccn1 (stereo not given)	124	84	·	-18
Cc1cc(C)c2nc(NC(=O)c3ccc(S(=O)(=O)N4CCc5ccccc54)cc3)sc2c1	111	81	96	·
Cc1ccc(Nc2nc(C3(C)CC(C(C)C)C(=O)O3)cs2)cc1 (stereo not given)	80	76	114	·
CN(C(=O)C1CCN(c2ncnc3c2nc2n3CCCCC2)CC1)c1ccccc1F	101	86	110	·
N#CCC(=O)Nc1cccc2ncccc12	83	100	·	-64
Cn1c(=O)[nH]c(=O)c2c1[nH]c(=S)n2CC(O)COc1ccc2ccccc2c1 (stereo not given)	132	84	·	-9
Cc1ccc(C)c(CNC(=O)c2nc3c(nnn3CC3CCCO3)c(=O)[nH]2)c1 (stereo not given)	78	80	100	-18
Cc1nn(-c2ccccc2)c2sc(C(=O)n3cccn3)cc12	106	86	107	-5
CC(=O)Oc1ccccc1C(=O)N(c1ccccc1)C(C)C1CC1 (stereo not given)	98	94	·	-10
C=CCn1c(-c2ccccc2Cl)nc2ccccc21	102	76	103	·
OCc1nc(-c2ccc(Cl)cc2)n2ccccc12	102	84	·	-118
c1ccc(CNc2nc(NCc3ccco3)nc(N3CCOCC3)n2)cc1	·	·	93	-24
CN(c1nnc(NC(=O)Nc2ccc(Br)cc2)s1)C1CCCCC1	120	88	104	-12
CCOC(=O)C1CCN(C(=O)c2sc(-c3ccc4c(c3)CCO4)nc2C)CC1	100	92	101	-42
O=C(Oc1ccccc1Cl)c1cc(-c2ccc3c(c2)OCCO3)on1	-0.1*	-0.5*	100&106	-4&-12
Cc1cc(C)cc(NC(=O)c2cc(S(=O)(=O)N3CCC(C)CC3)cn2C)c1	92	92	100	·
CCN(CC)c1ccc(C=C2C(=O)c3ccccc3C2=O)c(OC)c1	98	91	-18*	·
COc1ccc(Cl)cc1NC(=O)/C=C/c1cccs1	82	88	·	-9
O=C(CSc1nnc2ccccn12)NC(=O)Cc1ccccc1	91	100	·	-12

Rows were taken by chance; any-hit rate near 0.83%.
